Marburg entry inh = qHTS for inhibitors of binding or entry into cells for Marburg Virus; Marburg virus pseudotyped entry inhibition, cell reporter; control for the full effect not named in the record; about a third of the inactives were read at about 46 µM; Potency, µM (top dose mostly 37.8 µM), for inactives: at the top dose activity change, negative = inhibition, hits mostly inhibitors; hit rate 1.8% among 300,000; active = well fitted inhibition curve with a large enough effect; inconclusive = small, poorly fitted or top-dose-only effect, or effect the other way; inactive = flat fitted curve, though single readings scatter; tested in HEK293 cells; about a fifth of its hits are not listed in these tables; further: on the % scale 0 is the no-effect control and ±100 the full control effect; luciferase read-out
Cruzain Triton = qHTS Assay for Promiscuous and Specific Inhibitors of Cruzain (with detergent); Cruzipain (Trypanosoma cruzi), P25779; Potency, µM, for the others: max response, negative = inhibition, actives largely listed as inhibitors; hit rate 0.43% among 200,000; purified cruzain, Z-FR-AMC fluorescence, 0.01% Triton; active means well fitted curve in the direction sought with a large enough effect; inconclusive means small, poorly fitted or top-dose-only effect, or another doubt; inactive means no such curve, though single readings can be large; an effect the other way counts as inactive or inconclusive;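 further: plate controls were neutral wells for no effect and buffer without enzyme for full effect; nearly all actives have a fitted effect of over 40% in size; top concentration of the series not given in the record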
Target sequence (P25779 123-467 limits assumed): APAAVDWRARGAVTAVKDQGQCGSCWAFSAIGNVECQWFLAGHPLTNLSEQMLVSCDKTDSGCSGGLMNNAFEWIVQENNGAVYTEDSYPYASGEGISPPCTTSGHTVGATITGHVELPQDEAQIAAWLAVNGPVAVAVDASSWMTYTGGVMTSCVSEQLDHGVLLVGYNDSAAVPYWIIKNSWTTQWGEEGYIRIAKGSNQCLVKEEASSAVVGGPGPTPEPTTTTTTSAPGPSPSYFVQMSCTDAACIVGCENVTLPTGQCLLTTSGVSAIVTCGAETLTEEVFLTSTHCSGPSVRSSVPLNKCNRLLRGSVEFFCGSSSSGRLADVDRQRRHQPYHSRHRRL
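Cysteine protease activity tested under reducing, mildly acidic conditions (100 mM sodium acetate pH 5.5, 5 mM DTT) plus 0.01% Triton X-100. Cruzain 1.5 nM; substrate Z-FR-AMC 2 uM; 15 min compound preincubation at room temperature.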
Cruzain inh noDet = qHTS Assay for Promiscuous and Specific Inhibitors of Cruzain (without detergent); Potency, µM, for inactives: max response, negative = inhibition, actives largely listed as inhibitors; AID 1476, 2009; hit rate 2.3% among 200,000; Cruzipain (Trypanosoma cruzi), P25779; purified cruzain, Z-FR-AMC fluorescence, no detergent; active means well fitted curve in the direction sought with a large enough effect; inconclusive means small, poorly fitted or top-dose-only effect, or another doubt; inactive means no such curve, though single readings can be large; an effect the other way counts as inactive or inconclusive;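 further: plate controls were enzyme without inhibitor for no effect and buffer without enzyme for full effect; nearly all actives have a fitted effect of over 40% in size; top concentration of the series not given in the record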
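Detergent-free condition (0.00005% Triton X-100) in acetate buffer pH 5.5 with DTT. 1.5 nM enzyme and compound were pre-mixed 15 min, then 2 uM Z-FR-AMC substrate added; reaction progress from fluorescence change between first and third reads (60 s).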
Lassa entry inh = qHTS for Inhibitors of binding or entry into cells for Lassa Virus | Lassa virus pseudotype entry inhibition, cell reporter; control for the full effect not named in the record | Potency, µM (series often up to 37.9 µM), without a hit: at the highest dose activity change, negative = inhibition, actives largely listed as inhibitors | hit rate 1.2% among 300,000; active means well fitted inhibition curve with a large enough effect; inconclusive means small, poorly fitted or top-dose-only effect, or effect the other way; inactive means flat fitted curve, though single readings scatter; tested in HEK293 cells; further: on the % scale 0 is the no-effect control and ±100 the full control effect; nearly all actives have a fitted effect of over 50% in size; luciferase read-out
NS1 inh = qHTS Assay for Inhibitors of Influenza NS1 Protein Function; S. cerevisiae slowed by influenza A NS1, growth recovery by OD600; hit rate 0.4% among 270,000; AID 2326, 2010; Potency, µM (doses to about 46.1 µM), without a hit: at the top dose activity, positive = more growth; further: actives are rising curves; nearly all actives have a fitted effect of over 50% in size
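S. cerevisiae expressing influenza A NS1, grown in glucose, washed, then diluted 1:100 into pH 6.0 -URA galactose medium with 23 nl compound. Growth recovery read as OD600; NS1-free strain serves as control.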
StopGo reporter = High Throughput Screening for Foot and Mouth Disease Virus Antivirals; AID 1159524, 2015; Potency, µM (series often up to 57.9 µM), for the others: at the highest dose signal change, negative = less light; hit rate 1.2% among 410,000; human cells with a luciferase reporter of 2A StopGo recoding; control for the full effect not named in the record; active = well fitted falling curve with a large enough effect; inconclusive = small, poorly fitted or top-dose-only effect; inactive = no such curve, though single readings can be large or run the other way; tested in HEK293T cells; further: on the % scale 0 is the no-effect control and ±100 the full control effect; nearly all actives have a fitted effect of over 45% in size; luciferase light after 4 h
RE007 growth inh = qHTS Assay for Inhibitors of the HIV-1 protein Vpr; S. pombe RE007 Vpr strain, BacTiter-Glo ATP luminescence, 24 h; control for the full effect not named in the record; hit rate 0.21% among 360,000; Potency, µM (titrated, usually from 92.2 µM), for the others: at the top dose activity change, negative = less growth; active = well fitted falling curve with a large enough effect; inconclusive = small, poorly fitted or top-dose-only effect; inactive = no such curve, though single readings can be large or run the other way;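 further: on the % scale 0 is the no-effect control and ±100 the full control effect; nearly all actives have a fitted effect of over 50% in size; the assay follows cell death caused by Vpr and the record does not say whether a fall means rescue or toxicity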
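Fission yeast strain RE007, carrying one chromosomally integrated HIV-1 vpr copy, was seeded at OD 0.01 in PMG+AL medium with 23 nL pinned compound. After 24 h at 30 °C and 99% humidity, viability was read by BacTiter-Glo luminescence.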
SARS PLP yeast = qHTS of Yeast-based Assay for SARS-CoV PLP. S. cerevisiae expressing SARS-CoV PLpro, growth rescue; control for the full effect not named in the record. Potency, µM (highest dose often 32.9 µM), inactives show at the top dose activity, positive = growth rescue. hit rate 0.19% among 330,000. AID 485353, 2010; further: 0% is about no effect; nearly all actives have a fitted effect of over 55% in size; growth read by luminescence after 48 h
Numbers without * were called inactive; ? = inconclusive; . = not tested or not shown; & = joins results of further samples; [ ] = remark or other dose. Unless noted, the call rests on the fitted dose curve; in most records, active means well fitted rising curve with a large enough effect; inconclusive means small, poorly fitted or top-dose-only effect; inactive means no such curve, though single readings can be large or run the other way. Potency means the concentration at half of the fitted maximal effect.

| SMILES | Marburg entry inh | Cruzain Triton | Cruzain inh noDet | Lassa entry inh | NS1 inh | StopGo reporter | RE007 growth inh | SARS PLP yeast |
| --- | --- | --- | --- | --- | --- | --- | --- | --- |
| CCN1C(=O)[C@@H]2[C@H](C1=O)[C@@H]1C[C@H]3C(=O)N(CC)C(=O)[C@H]3[C@@H]3C1=C(C(=O)N1C(=O)OC(=NCC4CC4)[C@]31C)[C@@H]2C | . | . | . | . | -3% | -21% | 0% | 0% |
| CCOc1ccc(S(=O)(=O)N2CCN(c3ccc(OC)cc3)CC2)c2cccnc12 | ? | -0.5% | ? | ? | -61% | -23% | 2% | 1% |
| O=C(NCc1ccco1)Oc1ccccc1 | -4% | 1.8% | -4% | 2% | 3% | -13% | 1% | . |
| COc1ccccc1NCc1cccn1-c1nnc(N2CCCCCC2)s1 | . | -3.1% | 6% | -24%[46.1 µM] | . | 52%[activator] | . | . |
| CCC(C)(C)C1CCC(NC(=O)N2CCN(c3ccccc3O)CC2)CC1 (stereo not given) | ? | . | . | ? | 0% | -11% | -14% | -1% |
| Cn1ncc(Cl)c1C(=O)N1CCN(c2cccc(Cl)c2)CC1 | ? | . | . | ? | -20% | -22% | -5% | -11% |
| CSc1cccc(NC(=O)COC(=O)C2(c3ccccc3)CC2)c1 | 14% | . | . | 7%[46.1 µM] | . | 0% | -11% | -15% |
| COc1cccc(/C=N/Nc2nc(-c3cccnc3)nc3ccccc23)c1 | . | . | . | . | 5% | 1% | 7% | -2% |
| CCn1c(C)[n+](CCOC(C)=O)c2cc(Cl)c(Cl)cc21 | -3% | . | . | ? | 1% | -7% | 3% | 0% |
| CC(C)(/C=N/NC(=O)CSCc1ccccc1Cl)CCC#N | -1% | -0.2% | -7% | -8% | 2% | -17% | 10% | 2% |

| SMILES | Marburg entry inh | Cruzain Triton | Cruzain inh noDet | Lassa entry inh | NS1 inh | StopGo reporter | RE007 growth inh | SARS PLP yeast |
| --- | --- | --- | --- | --- | --- | --- | --- | --- |
| Cn1nnnc1SCCOc1ccc(C#N)cc1 | 25%[46.1 µM] | 7.3% | 8% | 1% | 1% | 7% | 14% | -1% |
| COC(=O)C1CCN(C(=O)c2oc3c(Cl)cc(C)cc3c2C)CC1 | . | . | . | . | -36% | 58%[activator] | -14% | -11% |
| O=C(NCCC1=CCCCC1)c1ccc(F)cc1 | ? | -0.6% | -2% | 10µM* | -26% | ? | -17% | -1% |
| COc1ccc(C(=O)CSC#N)cc1OC | ? | . | . | ? | 5% | 0% | 17% | -4% |
| COc1cc(NC(=O)c2cc(C)nc3ccccc23)cc(OC)c1 | 18%[46.1 µM] | . | . | ? | . | 6% | 3% | 3% |
| O=C(Nc1cccc(-c2ccc3nncn3n2)c1)C(F)(F)F | . | . | . | . | 22% | -11% | 4% | 9% |
| Cc1ccc(N(C(=O)CNC(=O)c2cccs2)C(C(=O)NC2CCCC2)c2ccncc2)cc1 (stereo not given) | 20%[46.1 µM] | . | . | . | -1% | 2% | -22% | 2% |
| C/C(=N\NC(=O)c1ccccc1)c1ccc2c(c1)OCO2 | -1% | -0.4% | -9% | ? | -9% | 57%[activator] | -3% | 2% |
| Cc1ccc(S(=O)(=O)N2CCCC2CNC(=O)C(=O)NC2CC2)cc1 (stereo not given) | 8%[46.1 µM] | . | . | -9% | . | -3% | 1% | -2% |
| COc1cc(N)c(Cl)cc1C(=O)OCC(=O)c1cccs1 | 20%[46.1 µM] | . | . | 2% | 1% | -14% | -11% | -1% |

Below each compound – Marburg entry inh	Cruzain Triton	Cruzain inh noDet	Lassa entry inh	NS1 inh	StopGo reporter	RE007 growth inh	SARS PLP yeast
CC(C)[C@H](NC(=O)c1ccccc1Cl)C(=O)OCC(=O)N1CCCCC1
    ?	.	.	10%	.	31%[activator]	-24%	-1%
O=C(NCCN1CCCCC1)c1ccc(=O)oc1
    13%	-6.3%	-7%	1%	17%	0%	-1%	.
Cc1ccc(/C=C/C(O)=C2/C(=O)N(C)C3(C)CC2c2ccccc2O3)cc1 (stereo not given)
    ?	-6.8%	-15%	-12%	-75%	14µM*	1%	-22%
O=C(/C=C/c1ccc(F)cc1)NC(Cc1c[nH]c2ccccc12)C(=O)O (stereo not given)
    22%[46.1 µM]	.	.	2%	.	10%	-5%	-5%
CCc1ccccc1-n1c(-c2ccncc2)n[nH]c1=S
    9%	5.1%	-19%	10%	4%	-17%	18%	10%
c1nnc(NC2=NCCC2)s1
    3%	0.6%	-7%	-25%	4%	6%	16%	4%
COc1cc(NS(=O)(=O)c2ccc(NC(=O)C3CCCO3)cc2)nc(OC)n1 (stereo not given)
    24%	1.8%	-8%	-5%	12%	-13%	10%	-1%
O=C(N1CCOCC1)C12CCC3CC(CC(C3)C1)C2
    1%[46.1 µM]	3.7%	-2%	-4%	-11%	-4%	9%	16%
CCOc1ccc(Cn2c3ccc(OC)cc3c3nc4ccccc4nc32)cc1
    -3%	-1.4%	14%	8%	6%	-18%	18%	-3%
CCCn1c(=O)c(C(=O)Nc2ccccc2C(=O)OCC)c(O)c2ccccc21
    -20%	-4.1%	1%	-5%	0%	1%	7%	-1%
CC1=C(C(=O)Nc2ccccc2)C(c2ccc(O)cc2)n2nc(-c3ccc(Cl)cc3)nc2N1 (stereo not given)
    ?	-5.3%	10%	?	.	0%	.	.
Cc1ccccc1-n1nnnc1SCC(C)C
    8%[46.1 µM]	.	.	13%	.	1%	22%	-3%
O=C(Nc1nccs1)c1cc(-c2ccccc2)nc2ccccc12
    -16%	-4.5%	?	-14%	4%	?	-10%	15%
O=C(Nc1ccccc1N1CCOCC1)c1cc2c(s1)CCCCC2
    ?	.	.	?	.	40%[activator]	0%	-13%
CCc1cnc2c(c1SCC(=O)Nc1ccc(C(=O)OC)cc1)c(=O)n(C)c(=O)n2C
    .	0.7%	10%	-1%[46.1 µM]	.	-24%	.	.
CCOCC(=O)Nc1ccc2c(c1)OCCO2
    -29%	3.2%	-3%	8%	-6%	35%[activator]	-7%	2%
COc1cc(C2CC(=O)Oc3cc(O)ccc32)cc(OC)c1OC (stereo not given)
    .	-2.6%	1%	.	.	1%	4%	-13%
CCNC(=O)NC(=O)C(C)SCc1ccccc1C (stereo not given)
    11%	-0.5%	3%	-1%	-2%	-24%	37%	1%
COc1cccc(N=c2oc3cc(O)ccc3cc2C(=O)NCC2CCCO2)c1 (stereo not given)
    ?	.	.	3%[46.1 µM]	4%	-19%	-17%	1%
COc1ccc(S(=O)(=O)N(Cc2ccco2)Cc2cc3ccccc3[nH]c2=O)cc1
    ?	.	.	?	5%	?	-9%	-2%
O=c1c2cc(Br)ccc2nc2n1CCCCC2
    ?	3.9%	-10%	8%	-17%	55%[activator]	-30%	6%
CCCN(CCO)Cc1cccc(Cl)c1
    15%	-8.6%	2%	4%	-2%	1%	-9%	-1%
CCn1cc(C(=O)N2CCN(c3ccccc3OC)CC2)c(=O)c2cc(S(=O)(=O)N3CCC(C)CC3)ccc21
    11%[46.1 µM]	-7.6%	?	7%[46.1 µM]	.	5%	.	.
Oc1ccccc1-c1nnc(COc2ccc(Cl)cc2Cl)o1
    .	-6.0%	2%	.	-16%	55%[activator]	-4%	-9%
Cc1ccc(NC(=O)NCc2ccc3c(c2)OCO3)c(C)c1
    2%[46.1 µM]	.	.	12%	.	23%	-3%	1%
CCOC(=O)c1cc2c(=O)n3ccccc3nc2n(CCOC)c1=NC(=O)C(C)(C)Oc1ccc(Cl)cc1
    1%[46.1 µM]	0.6%	3%	-4%[46.1 µM]	.	-3%	.	.
CC1Cc2ccccc2N1C(=O)COc1ccc2c(c1)OCO2 (stereo not given)
    ?	.	.	?	.	-1%	-8%	-9%
O=C(Cc1cccs1)N1CCC2(CC1)OCCO2
    1%	6.3%	10%	10%	?	-12%	-8%	1%
O=C(NCc1ccccc1)C1=C[C@H](c2ccc(Br)cc2)C[C@H](OCc2ccc(CO)cc2)O1
    .	.	.	.	?	-12%	-7%	-3%
S=C(NCCN1CCOCC1)N/N=C/c1c2ccccc2cc2ccccc12
    -29%	-8.5%	?	-19%	1%	-26%	4%	-6%

An excerpt from above in order of molecular weight, smallest number first.
Below each compound – Marburg entry inh	Cruzain Triton	Cruzain inh noDet	Lassa entry inh	NS1 inh	StopGo reporter	RE007 growth inh	SARS PLP yeast
O=C(Nc1nccs1)c1cc(-c2ccccc2)nc2ccccc12
    -16%	-4.5%	?	-14%	4%	?	-10%	15%
Oc1ccccc1-c1nnc(COc2ccc(Cl)cc2Cl)o1
    .	-6.0%	2%	.	-16%	55%[activator]	-4%	-9%
CCCn1c(=O)c(C(=O)Nc2ccccc2C(=O)OCC)c(O)c2ccccc21
    -20%	-4.1%	1%	-5%	0%	1%	7%	-1%

Going on with the list.
Below each compound – Marburg entry inh	Cruzain Triton	Cruzain inh noDet	Lassa entry inh	NS1 inh	StopGo reporter	RE007 growth inh	SARS PLP yeast
Cc1ccc(S(=O)(=O)c2cc(N3CCOCC3)nc(-c3ccccc3)n2)cc1
    1%	-3.8%	6%	3%	-7%	-24%	7%	-5%
Cc1cc(OCc2cc(C(=O)N(Cc3nccn3C)C(C)C)no2)cc(C)c1Cl
    ?	.	.	-27%[46.1 µM]	-17%	11%	-7%	2%
CCN1CCN(S(=O)(=O)c2ccc(OC)c(Br)c2)CC1
    1%	2.4%	-24%	7%	-6%	-14%	-17%	4%
O=c1cc(-c2ccccc2Cl)oc2cccc(O)c12
    18%	-4.7%&-6.0%	-10%&-6%	6%	-1%	3%	-16%	12%
O=C(NC1CCCCCC1)c1cc2ccccc2oc1=O
    ?	.	.	?	?	?	0%	.
